# miR-21 reporter = raises the signal of a miR-21 reporter; HeLa miR-21 FLuc reporter, luciferase, 48 h; Potency, µM (doses to about 38.3 µM), for inactives: at the top dose reporter change, positive = more light; 340,000 tested, under 10 active; active = well fitted rising curve with a large enough effect; inconclusive = small, poorly fitted or top-dose-only effect; inactive = no such curve, though single readings can be large or run the other way;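 further: % of control where 0% means no effect; miR-21 action dims this reporter so a rising signal means less miR-21 action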
#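 HeLa miR-21-FLuc reporter line, endogenous miR-21; 2000 cells/well in DMEM/10% FBS; compound titration up to ~40uM final, 48 h, 37 degree Celsius; luciferase detection reagent, 15 min lysis, CCD luminescence.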
# Rango-impB inh = inhibitors of Rango-importin beta complex formation | Q14974 | Rango CFP/YFP FRET sensor + importin beta, 45 min | Potency, µM (top dose mostly 92.2 µM), inactives show top-dose inhibition of complex formation | 340,000 tested, 0.031% active | AID 540263; active = rising FRET ratio curve, often small or poorly fitted; inconclusive = mostly compound fluorescence or quenching in the first reads; inactive = flat curves in all reads;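 further: potency means the concentration at half of the fitted maximal effect; 0% = DMSO wells and 100% = buffer wells lacking importin beta; nearly all actives have a fitted effect of over 15% in size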
# Target sequence (Q14974 whole entry, looked up): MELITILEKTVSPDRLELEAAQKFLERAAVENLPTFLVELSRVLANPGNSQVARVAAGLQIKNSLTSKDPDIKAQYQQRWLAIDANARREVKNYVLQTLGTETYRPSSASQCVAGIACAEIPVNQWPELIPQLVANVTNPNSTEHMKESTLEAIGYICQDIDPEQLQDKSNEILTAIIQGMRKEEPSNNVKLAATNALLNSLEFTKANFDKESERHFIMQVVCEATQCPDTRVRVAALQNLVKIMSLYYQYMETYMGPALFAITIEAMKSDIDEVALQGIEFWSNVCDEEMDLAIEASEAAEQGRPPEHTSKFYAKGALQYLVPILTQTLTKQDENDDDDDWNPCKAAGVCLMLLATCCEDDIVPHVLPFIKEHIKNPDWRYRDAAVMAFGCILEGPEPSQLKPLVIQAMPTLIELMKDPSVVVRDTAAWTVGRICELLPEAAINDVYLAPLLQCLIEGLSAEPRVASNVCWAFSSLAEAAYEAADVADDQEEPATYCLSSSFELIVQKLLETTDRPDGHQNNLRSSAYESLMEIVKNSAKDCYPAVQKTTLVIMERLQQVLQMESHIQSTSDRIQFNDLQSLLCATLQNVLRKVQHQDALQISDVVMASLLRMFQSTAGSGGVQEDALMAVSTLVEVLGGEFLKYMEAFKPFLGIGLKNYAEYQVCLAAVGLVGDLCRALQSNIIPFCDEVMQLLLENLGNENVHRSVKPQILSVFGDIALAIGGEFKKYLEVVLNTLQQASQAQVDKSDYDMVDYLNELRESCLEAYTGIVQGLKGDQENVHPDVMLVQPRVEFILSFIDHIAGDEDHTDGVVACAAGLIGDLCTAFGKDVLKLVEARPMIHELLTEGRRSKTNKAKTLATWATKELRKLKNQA
#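 FRET biosensor Rango (snurportin 1 IBB between N-terminal EYFP and C-terminal Cerulean), 50 nM in PBS/1 mM DTT/0.02% Tween-20/0.1% BSA, preincubated 5 min RT with compound; 0.125 microM importin beta added, 45 min RT, CFP/YFP FRET ratio read.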
# Rango release inh = inhibition of RanGTP-driven Rango-importin beta dissociation. O95149+P62826. Potency, µM (highest dose often 46.1 µM), without a hit: top-dose activity change, negative = inhibition. 340,000 tested, 0.071% active. Biochemical FRET Rango-importin beta, RanGTP-induced dissociation. AID 540253; active means falling FRET ratio curve, often poorly fitted, with flat reads before Ran was added; inconclusive means other falling curves, or compound fluorescence or quenching; inactive means flat or rising ratio curve;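 further: potency means the concentration at half of the fitted maximal effect; % of control where 0% means no effect; nearly all actives have a fitted effect of over 45% in size; -100% = wells without RanGTP and RCC1; the record marks most hits as doubtful in a second field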
#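 Rango FRET biosensor (snurportin-1 IBB flanked by N-terminal EYFP and C-terminal CFP10) at 0.1 uM, with 0.25 uM importin beta in PBS, 1mM DTT, 0.02% Tween-20, 0.1% BSA. 0.6 uM Ran, 2mM GTP and 0.2 uM RCC1 were then added for 45 min at room temperature. Inhibition read as loss of FRET rise.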
# GLA inh pH 4.5 = inhibitors of human alpha-galactosidase A at pH 4.5; activity change, negative = inhibition, % at 105 µM; purified enzyme, 4-MU-alpha-Gal fluorescence, pH 4.5; 230,000 tested, under 10 active; P06280; AID 1467; inconclusive = small, poorly fitted or top-dose-only inhibition, or a rising curve; inactive = flat fitted curve, though single readings scatter; no compound was filed as active;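 further: 0% = full activity with enzyme and -100% = basal without enzyme; dose as in the result columns while the protocol names 77 µM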
# Active calls of the source: *; ? = inconclusive; . = no result given; & = joins results of further samples; [ ] = dose if it differs, or a comment.
SMILES,miR-21 reporter,Rango-impB inh,Rango release inh,GLA inh pH 4.5
COc1ccc(-n2cc(-c3ccccc3)c3c(=O)[nH]cnc32)cc1,1.4%,-0.4%,1.8%,-12.0
CCC(=O)Nc1cc(C(F)(F)F)ccc1N1CCCC1,-1.9%,-4.2%,0.0%,4.2
COc1ccc2c(=O)cc(-c3ccccc3F)oc2c1,-48.7%,1.4%,-20.8%,-10.8
O=C1[C@H](Cc2ccccc2)NCCCC[C@H](c2ccco2)N1Cc1ccccc1,.,0.0%,9.9%,.
Cc1ccc(Cl)cc1N1CCN(S(=O)(=O)c2ccc3c(c2)oc(=O)n3C)CC1,-3.3%,3.2%,-12.0%,-2.2
O=C(Nc1cccc(-n2cccn2)c1)C1CCCN(Cc2ccc(C#CCCO)cc2)C1 (configuration not stated),27.6%,0.0%,0.0%,.
CCOC(=O)CCCNC(=O)CCNC(=O)c1ccc(OCC)cc1,-3.9%,-0.4%,-1.4%,4.9
CC1C(=NO)C(C)C(c2ccc(N(C)C)cc2)NC1c1ccc(N(C)C)cc1 (configuration not stated),0.6%,0.7%,-10.2%,-6.6
COc1ccccc1CNC(=O)C1CCCN(S(=O)(=O)c2ccc3c(c2)CC(C)N3C(C)=O)C1 (configuration not stated),-0.9%,1.7%,-0.7%,.
CCCNC(=S)N1CCC(NC(=O)c2cccc(C)c2)CC1,-0.2%,0.2%,8.0%,.
CCOc1ccc(Br)cc1C(=S)N1CCCC1,-7.5%,5.1%,?,.
COc1cccc(C(=O)OCC(=O)NCCc2ccccc2)c1OC,0.2%,-5.1%,0.6%,3.4
CCOc1ccc(OCC(O)CNC2CCN(Cc3ccccc3)CC2)cc1 (configuration not stated),-7.4%,-0.3%,-12.9%,-4.3
Cc1noc(C)c1COc1cccc(C(=O)NCc2ccccc2Cl)c1,-1.4%,2.0%,-5.0%,0.6
CC(NC(=O)c1ccccc1Cl)C(=O)NCc1cccs1 (configuration not stated),.,?,23.6%,.
N#CC1=C2N=C(N)c3ccccc3N2C2=C(C(=O)CCC2)C1c1ccc(Cl)cc1 (configuration not stated),-10.8%,?,17.6%,-4.2
COc1ccc(OCC(=O)NCC(c2ccc(OC)cc2)N2CCCCC2)cc1 (configuration not stated),-1.8%&12.3%,-0.5%,11.3%,.
CC(=O)C1CCC2C3CCC4=CC(=O)CCC4(C)C3(F)C(O)CC12C (configuration not stated),.,-0.3%,-1.7%,.
CC1(C)CC(=O)C/C(=N\NC(=S)NCc2ccccc2)C1,-10.6%,3.3%,-12.3%,3.1
COc1ccc2nc(NC(=O)C3CCCN3S(=O)(=O)c3ccc(C)cc3)sc2c1 (configuration not stated),3.4%,-0.9%,-17.8%,-1.4
CCC(=O)OCC(=O)Nc1cc([N+](=O)[O-])ccc1Cl,-1.9%,1.0%,-11.1%,-1.9
CN(C(=O)CSc1nc2ccccc2n1C)C1CCS(=O)(=O)C1 (configuration not stated),.,-0.9%,-11.6%,.
CCCCNC(=O)c1ccc(CS(=O)(=O)c2ccccc2OC)o1,-3.3%,2.9%,23.6%,.
O=C(O)C1CC(=O)N(c2ccc(F)cc2)C1 (configuration not stated),-8.5%,0.2%,8.6%,-1.0
O=C(COC(=O)Cc1ccsc1)Nc1ccc(Cl)c(S(=O)(=O)N2CCOCC2)c1,2.4%,-1.5%,0.3%,-1.5
CCOc1ccc(-n2c(C)cc(C(=O)NS(=O)(=O)c3ccc(C)cc3)c2C)cc1,1.0%,-3.1%,26.6%,0.1
COc1ccc(NS(=O)(=O)c2ccc(-n3cnnn3)cc2)cc1OC,12.7%,4.5%,-0.2%,.
O=C(COc1ccccc1)NCC(=O)Nc1cccc2ccccc12,-6.4%,0.2%,2.9%,2.7
CC(=O)N(Cc1cc2ccc(C)c(C)c2n2nnnc12)C1CCCC1,2.8%,.,.,-4.6
CC(=O)NC(Cc1c[nH]c2ccccc12)C(=O)OCC(=O)N1CCCCCC1 (configuration not stated),2.1%,0.0%,0.0%,0.7

# Of the compounds above, these have a thiophene ring, fused or not.
SMILES,miR-21 reporter,Rango-impB inh,Rango release inh,GLA inh pH 4.5
CC(NC(=O)c1ccccc1Cl)C(=O)NCc1cccs1 (configuration not stated),.,?,23.6%,.
O=C(COC(=O)Cc1ccsc1)Nc1ccc(Cl)c(S(=O)(=O)N2CCOCC2)c1,2.4%,-1.5%,0.3%,-1.5

# Further records:
SMILES,miR-21 reporter,Rango-impB inh,Rango release inh,GLA inh pH 4.5
O=C(C1COc2ccccc2O1)N1CCN(Cc2ccc3c(c2)OCO3)CC1 (configuration not stated),0.9%,-0.2%,-1.1%,2.2
CSc1ccccc1NC(=O)CN(C)C(=O)c1ccc(-n2cccn2)cc1,.,0.1%,26.8%,.
O=C(Nc1ccccc1F)N1CCCC1c1cccnc1 (configuration not stated),-5.1%,4.1%,-2.3%,-8.4
CCOc1ncnc2c1sc1nc(C)cc(C)c12,-5.3%,3.2%,-7.4%,-3.9
CCCCn1c(N)c(N(CC(C)C)C(=O)C2=NN(c3ccccc3)C(=O)CC2)c(=O)[nH]c1=O,.,-0.2%,-13.8%,.
O=C(CC(c1ccccc1)c1ccccc1O)NCc1ccccc1 (configuration not stated),2.3%,-2.3%,-5.0%,-3.7
Cc1cc(C)nc(/N=C(\N)Nc2ccccc2-c2ccccc2)n1,11.8%,-4.0%,-2.1%,-1.6
N#Cc1c(N)nc2c(c1-c1cccnc1)CCCCC2,8.1%,-2.6%,8.0%,2.2
C[C@@H]1C(=O)N(c2ccccc2)[C@@H]1c1ccncc1,.,-1.7%,-8.4%,.
COc1cc(C(=O)Nc2ccc(S(=O)(=O)N3CCCCC3)cc2)ccc1OCC(=O)N1CCOCC1,.,-0.8%,2.8%,.
O=C1CN(C(=O)COC(=O)[C@@H]2CCCN2S(=O)(=O)c2ccc(Cl)cc2)c2ccccc2N1,.,-1.3%,13.0%,.
Cc1ccc(S(C)(=O)=NC(=O)c2cc(C)on2)cc1 (configuration not stated),-2.3%,-3.4%,9.6%,-5.2
CC(=O)N1CCN(S(=O)(=O)c2cccc(C(=O)NC3CCCc4ccccc43)c2)CC1 (configuration not stated),-0.4%,0.4%,2.0%,-5.0
CCCNC(=O)C1CC(c2ccc(C(F)(F)F)cc2)=NO1 (configuration not stated),-22.3%,0.0%,-14.8%,-7.0
Cc1cc(NC(=O)CSc2ncnc3ccccc23)no1,-2.6%,-1.8%,0.5%,-1.4
c1ccc(Nc2nc3ccccc3n3cnnc23)cc1,-14.0%,1.2%,61.2%,3.8
COc1ccc(S(=O)(=O)N2CCC(C(=O)Oc3cccc(C)c3)CC2)cc1OC,-0.1%,-2.4%,-5.3%,.
CCCNC(=O)CSc1nnc(-c2ccccc2Br)n1-c1cccc(C(F)(F)F)c1,15.8%,-2.1%,-0.7%,3.7
CC(=O)N1CCN(c2ccc([N+](=O)[O-])cc2)CC1,-0.6%,-2.9%,-6.2%,3.2
COC(=O)C1(C)NC(c2ccc(OC)cc2)C2C(=O)N(c3ccccc3)C(=O)C21 (configuration not stated),0.0%,4.9%,38.8%,.
Cc1ccc2c(CN3CCN(S(=O)(=O)c4ccc(Cl)cc4)CC3)cc(=O)oc2c1C,.,0.2%,-3.0%,.
Cc1ccc(C(=O)Nc2cccnc2Cl)cc1Cl,-66.7%,0.1%,2.0%,.
Cc1cc(C)cc(OCC(O)CN2C(=O)NC(C)(C)C2=O)c1 (configuration not stated),-1.3%,-5.6%,-17.1%,-0.7
O=C1CC(N2CCN(C/C=C/c3ccccc3)CC2)C(=O)N1CCc1ccccc1 (configuration not stated),13.2%,-0.5%,?,1.4
c1ccc(-n2cnc3cc(NCc4ccncc4)ccc32)cc1,-56.5%,-6.2%,-19.6%,6.5
c1ccc(N2CC3COc4ccccc4C3=N2)cc1 (configuration not stated),.,?,?,.
Cc1cc(C)c(C#N)c(SCC(=O)Nc2nonc2N)n1,-64.3%,?,-16.9%,.
O=C(N/N=C/c1cccc(OC(=O)c2cccc(Br)c2)c1)c1ccncc1,-3.4%,5.2%,11.5%,.
O=C1C(=O)N(Cc2cccnc2)C(c2cccc(Br)c2)/C1=C(/O)c1ccc2c(c1)OCO2 (configuration not stated),-4.9%,0.1%,12.1%,.
O=C(NC1CCN(Cc2ccccc2)CC1)C1CCN(S(=O)(=O)c2ccccc2)CC1,4.1%,2.5%,-1.1%,.
Cc1ccccc1CS(=O)(=O)Cc1ccc(C(=O)NCCCN2CCCC2=O)o1,-0.7%,-0.2%,-0.2%,3.5
CSc1nnnn1-c1cccc(O)c1,-1.5%,4.5%,-9.7%,-2.8
O=C(NC1CCCC1)c1cc(-c2ccc(Cl)cc2)on1,-67.7%,5.3%,0.8%,.
CCOc1ccccc1N(CC(=O)NCCOC)C(=O)CCC(=O)Nc1ccccn1,2.1%,0.1%,12.5%,0.4
Cc1nc(Cl)c(C#N)c2c1CCCC2,-1.2%,?,-13.8%,1.8
N#Cc1c(NC(=O)CCCC(=O)O)sc2c1CCCCC2,9.7%,-0.2%,-18.6%,2.2
CCCCCCSc1cccc(-c2nc3ccc(C)cn3c2NC2CCCCC2)c1,.,0.2%,-3.2%,.
CCOc1ccc(NC(=O)c2ccc(F)cc2F)cc1,.,7.6%,7.6%,.
COc1ccc(C2=C(Nc3ccccc3)c3ccccc3C2=O)cc1,-1.4%,-1.1%,6.6%,2.3
Cc1cccc(C(=O)Nc2ccc(C(=O)N/N=C/c3ccc4c(c3)OCO4)cc2)c1,1.0%,-1.6%,14.0%,.
CC(=O)N1CCCc2cc(S(=O)(=O)N(CC(C)C)CC(C)C)ccc21,1.7%,7.2%,-15.3%,-0.8
O=c1c(Br)c(Br)cnn1-c1ccccc1,?,-1.2%,13.5%,1.9
O=C(c1ccc(OC2CCN(Cc3ccccn3)CC2)cc1)N1CCCCO1,-7.0%,-2.3%,-0.2%,4.2
Cc1ccc(NC(=O)c2ccc3c(c2)C(=O)N(CC2CCCO2)C3=O)cc1C (configuration not stated),0.1%,-1.4%,8.5%,-3.1
O=C(CN1CC(=O)Nc2ccccc21)Nc1ccc(F)c(F)c1,-32.2%,-0.9%,-12.1%,0.6[21.1 µM]

# Reformatted with two lines to a compound: three of the compounds above.
# The line under a structure holds: miR-21 reporter, Rango-impB inh, Rango release inh, GLA inh pH 4.5
CCOc1ccc(NC(=O)c2ccc(F)cc2F)cc1
→ ., 7.6%, 7.6%, .
COc1ccc(C2=C(Nc3ccccc3)c3ccccc3C2=O)cc1
→ -1.4%, -1.1%, 6.6%, 2.3
Cc1cccc(C(=O)Nc2ccc(C(=O)N/N=C/c3ccc4c(c3)OCO4)cc2)c1
→ 1.0%, -1.6%, 14.0%, .

# Next part:
SMILES,miR-21 reporter,Rango-impB inh,Rango release inh,GLA inh pH 4.5
CC(=O)c1cc(-c2ccccc2)n(CC(=O)N2CCCCC2)c1C,-0.8%,-0.4%,1.6%,-2.5
O=C(NN1CCOCC1)c1cc(-c2ccncc2)nc2ccccc12,-0.2%,2.6%,7.7%,-3.1
Cn1c(CC(=O)NNC(=O)c2ccccc2F)nc2ccccc21,.,0.2%,-8.0%,.
O=C(C1CCC1)N1CCN(S(=O)(=O)c2ccc([N+](=O)[O-])cc2)CC1,.,-1.1%,13.4%,.
CC1CCCCC1NC(=O)COC(=O)c1ccc2c(c1)NC(=O)CS2 (configuration not stated),.,-2.2%,8.4%,.
CCC(C)N1CCC2(CC1)N=c1c(c3c4c5c(C)c(O)c3c(O)c1=NC(=O)C(C)=CC=C[C@H](C)[C@H](O)[C@@H](C)[C@@H](O)[C@@H](C)[C@H](OC(C)=O)[C@H](C)[C@@H](OC)C=CO[C@@](C)(O5)C4=O)N2 (some centres not stated),.,-3.2%,-5.2%,.
Cc1cccc(NC(=O)COC(=O)c2cccc(S(=O)(=O)N3CCCCCC3)c2)c1,.,7.1%,7.5%,.
O=C1c2ccccc2[C@@H]2C[C@@H](O)[C@H](Nc3cccc4ccccc34)CCN12,.,?,?,.
O=C(NC1CCCCC1)c1cccc(S(=O)(=O)N2CCCCC2)c1,-12.1%,-0.1%,-2.6%,.

# Source: PubChem BioAssay

# Not all compounds are listed; count on the stated rates, not on these rows.
